eIF4H FP inh: inhibitors of RNA binding by human eIF4H; Q15056; eIF4H fluorescence polarization binding assay; inhibition, % at 35 µM; actives 0.94% (n = 290,000);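 active means 50% or more with normal probe brightness, or confirmed in later tests; about a fifth of its hits are not listed in these tables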;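 further: calls also rest on retests at 20 µM and on dose response follow-up; 0% = protein and probe with vehicle and 100% = probe without protein; strong numbers were not always called active; many hits fall short of the cut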
Rce1 inh: blocks yeast Ras-converting enzyme; calls only; actives 0.27% (n = 290,000); yeast membranes, quenched prenylated peptide cleavage fluorescence; Q03530; AID 2563;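 active means fall in fluorescence gain of 50% or more versus controls, with final raw signal at or below 3038400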;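 further: plate controls were neutral control wells for no effect and wells lacking membranes for full effect; tested at 10 µM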
Target sequence (Q03530 whole entry, looked up): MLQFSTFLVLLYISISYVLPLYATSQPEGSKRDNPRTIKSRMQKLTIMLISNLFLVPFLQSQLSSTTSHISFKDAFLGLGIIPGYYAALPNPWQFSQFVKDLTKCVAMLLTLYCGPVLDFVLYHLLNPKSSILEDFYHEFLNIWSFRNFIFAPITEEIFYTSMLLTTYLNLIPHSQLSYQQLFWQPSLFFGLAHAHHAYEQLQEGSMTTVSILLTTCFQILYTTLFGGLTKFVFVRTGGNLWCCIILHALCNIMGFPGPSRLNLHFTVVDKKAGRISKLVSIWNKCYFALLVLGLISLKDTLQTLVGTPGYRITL
Yeast UUG start: yeast start codon fidelity modulation | S. cerevisiae UUG-firefly luciferase reporter, luminescence/redox ratio | activity score, % at 18.7 µM | actives 0.13% (n = 350,000);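 active means replicate mean at a twofold rise or more, about +100% in these data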;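 further: firefly luciferase made from a UUG start codon reports start codon fidelity; reporter light over untreated wells divided by growth signal over untreated wells; some hits fall short of that in this replicate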
HIV Env fusion: inhibitors of HIV Env-mediated cell fusion. HeLa-JRFL Env/CEM21 cell fusion, luciferase. inhibition, % at 12.3 µM. actives 1.1% (n = 360,000);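 active means mean replicate inhibition score of at least 50 and every replicate individually at or above 50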;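 further: 0% = plate neutral controls and 100% = maraviroc near 300 nM; one replicate is shown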
CSC inhib: cancer stem cell inhibition | cancer stem cell-like cells viability, luminescence | inhibition, % at 7.5 µM | actives 1.1% (n = 300,000);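 active means mean at 75% or more and at least half the replicates too; tested in HMLE shEcad cells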;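 further: 0% = median of negative and 100% = median of positive control wells; the first replicate is given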
PABP polyA inh: blocks human PABP binding to poly(A) RNA; fluorescence polarization; inhibition, % at 35 µM; actives 1% (n = 290,000);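 active means 50% or more with normal probe brightness, or confirmed in later tests; about a fifth of its hits are not listed in these tables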;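 further: calls also rest on retests at 20 µM and on dose response follow-up; controls were probe without protein and protein plus probe with vehicle; some compounds called inactive have numbers as strong as hits; many hits fall short of the cut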
MT1-MMP act inh: MT1-MMP (human) activation inhibition. P50281. actives 0.061% (n = 360,000). HT1080 RFP-PRO-GFP cells, GFP/RFP ratio fluorescence, overnight; percent of plate control window, DMSO zero. GFP/RFP ratio change, % at 20 µM. AID 651647;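 active means GFP/RFP ratio change of at least 30% with cell ATP level not reduced by more than half and red fluorescence within 50% of control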; further: strong numbers were not always called active
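Test system: HT1080 cells expressing an RFP-PRO-GFP fluorescent reporter construct / Compound dosing: single-point 20 µM compound, 1% DMSO / Schedule: cells overnight before dosing, compound overnight, 37 °C, 5% CO2 / Evaluation: GFP/RFP fluorescence ratio / Control set: DMSO and RFP-L50D-GFP cell wells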
MT1-MMP act inh RFP: also measured in MT1-MMP act inh; calls as there; RFP signal change, %; measured here: RFP expression control read;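 0 = vehicle wells; hits needed this value within 50% of zero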
The depositor's hits bear a star; i = inactive; · = no result given; + = active, no number. Not all compounds are listed. The share of hits here may be higher or lower than overall.

Order of values – eIF4H FP inh, Rce1 inh, Yeast UUG start, HIV Env fusion, CSC inhib, PABP polyA inh, MT1-MMP act inh, MT1-MMP act inh RFP
Cc1cccc(-n2c(C)nc3sccc3c2=O)c1
    0, i, -5, -74, 2, 10, -3, -3
CSc1nc2n(n1)C(C)C1=C(CCCC1=O)N2 (configuration not stated)
    -6, i, -5, -4, -21, -28, 1, 4
N#CCSc1nc2sc3c(c2c(=O)n1C1CCCCC1)CCCC3
    -18, i, -2, ·, 60, 0, -6, -12
O=S(=O)(c1ccccc1)N(CC(O)Cn1c2ccccc2c2ccccc21)c1ccccc1 (configuration not stated)
    -5, i, -17, ·, 95*, 6, -24, -29
COc1ccc(C2NC(c3ccc(OC)cc3)C([N+](=O)[O-])C(C)(C)C2[N+](=O)[O-])cc1 (configuration not stated)
    -11, i, ·, -5, 17, -14, 0, -5
CCOC(=O)C1CN(S(=O)(=O)c2ccc(OC)cc2)c2cc(Cl)ccc2O1 (configuration not stated)
    -3, i, -20, 13, 3, -12, -2, 3
CNC(=O)/C(C#N)=C/c1cn(CC(=O)OC)c2ccccc12
    -4, i, -11, -4, -4, -3, 7, 5
COc1ccc(OCc2cc(C(=O)N3CCCN(C(C)=O)CC3)no2)c(Cl)c1
    -21, i, -1, -9, 7, -1, 2, 1
Cn1nnc(NC(=O)CSc2ncn[nH]2)n1
    -8, i, -14, -48, 9, -10, 5, 4
N#CCC(=O)NCCCc1ccccc1
    -1, i, -14, -40, -5, -5, 0, 6
Cc1ccc2nc(SCC(=O)NCC3CCCO3)c(C#N)cc2c1 (configuration not stated)
    3, i, 1, ·, -21, 9, -4, -6
COc1ccc(S(=O)Cc2ccc(C(=O)N3CCN(c4cccc(C)c4C)CC3)o2)cc1 (configuration not stated)
    -10, i, 5, ·, 50, 4, -4, -12
CC1CCCC(C)N1S(=O)(=O)c1ccc(Cl)cc1 (configuration not stated)
    2, i, -13, -3, -9, 1, -2, 0
Cn1c(=O)c2c(ncn2CC(=O)N/N=C/C=C/c2ccccc2)n(C)c1=O
    -3, i, 0, -7, -2, -1, -2, -1
COC(=O)c1cc(OC)c(OC)cc1NC(=O)CN1CCCCC1
    -9, i, -16, ·, 3, -17, 6, -2

Order of values – eIF4H FP inh, Rce1 inh, Yeast UUG start, HIV Env fusion, CSC inhib, PABP polyA inh, MT1-MMP act inh, MT1-MMP act inh RFP
COc1ccc(Cl)cc1NC(=O)CSc1nncn1-c1cccnc1
    -12, i, -5, -122, -10, 4, -3, -5
O=[N+]([O-])c1cccc(-c2c[n+]3c(n2-c2ccccc2)SCC3)c1
    -2, i, ·, -32, -9, -8, 4, 2
Cc1nc2ccccc2n2c(-c3ccccc3)c3c(=O)n(C)c(=O)n(C)c3c12
    -2, i, 3, -101, -10, 0, -4, 0
O=C(Cc1ccc(F)cc1)N(c1ccc(F)cc1)C1C=CS(=O)(=O)C1 (configuration not stated)
    4, i, 20, -15, -11, 6, 6, 0
Cc1ccc(C)c(C(=O)c2c(C)nc3sccn23)c1
    -6, ·, ·, ·, 7, -2, -5, -3
CCOC(=O)C1(CCc2ccccc2)CCN(C(=O)C2CCOCC2)CC1
    -5, i, ·, 17, 1, -5, -2, -1
CCOC(=O)Cn1ccc(O)c(Cc2ccc(Cl)cc2Cl)c1=O
    -2, i, -11, ·, -14, 3, 4, 3
N#Cc1c(N)nc2c(c1-c1cccc(O)c1)CCCCCC2
    -4, i, -7, 30, 82*, -8, 5, 1
CCOC(=O)C1CCN(C(=O)c2cc3c(=O)n4ccccc4nc3s2)CC1
    -3, i, 6, -19, 3, -9, -2, 0
Cc1ccc2nsnc2c1S(=O)(=O)N(Cc1cc2cccc(C)c2[nH]c1=O)CC1CCCO1 (configuration not stated)
    4, i, -16, 1, 6, -10, -10, 0
CCOC(=O)Nc1nnc(Cc2ccc(Cl)c(Cl)c2)s1
    -1, i, ·, 18, 67, 11, -3, 0
COc1ccc(S(=O)(=O)N[C@@H](C)C(=O)OCC(=O)Nc2cc3oc4ccccc4c3cc2OC)cc1
    -6, i, -14, -31, 8, 7, 8, -4
NC(=O)c1cc2ccccc2oc1=NCc1ccccc1
    -5, i, 1, ·, ·, 2, -6, -5
Cn1cc(Cl)c(C(=O)NNC(=S)Nc2cccc(Cl)c2)n1
    13, i, ·, -4, -3, 1, 6, 6
C#CCn1cc(/C=N/NC(=O)c2cc3ccccc3o2)c2ccccc21
    0, i, ·, -14, 34, 0, -1, -3

Order of values – eIF4H FP inh, Rce1 inh, Yeast UUG start, HIV Env fusion, CSC inhib, PABP polyA inh, MT1-MMP act inh, MT1-MMP act inh RFP
CCCCC(=O)Nc1ccc2c(c1)nc1n2CCN(CCOC)C1
    43, i, -15, 3, ·, -6, -7, 0
COc1ccc2c(c1)[C@H]1[C@H](CO2)[C@H](c2ccccc2)[C@]2(C)C(=O)Nc3cc(Cl)ccc3C(=O)N12
    ·, ·, 1, ·, 27, ·, -17, -12
COc1cc([N+](=O)[O-])cc(/C=N/NC(=O)C(O)(c2ccccc2)c2ccccc2)c1O
    8, i, -26, 12, 13, 7, 4, -1
N#CC1=C(SCc2ccccc2)NC(=O)C(C#N)C12CCCC2 (configuration not stated)
    -1, i, -12, ·, 2, -2, 0, -22
CCN1CCN(c2nc(N)c([N+](=O)[O-])c(Nc3cccc(C)c3)n2)CC1
    -8, i, -1, -11, -6, -4, -5, -1
CCN(C(=O)CSc1ncn[nH]1)c1cccc2ccccc12
    2, i, 0, ·, 6, 23, 3, 4
CC(=O)CCc1oc2ccc([N+](=O)[O-])cc2c1-c1ccc(C)o1
    0, i, -19, 26, 9, -1, -10, 2
CN(C)c1nc(SCc2ccccc2Cl)nc2c1CCCC2
    -10, i, -4, ·, -3, 8, -3, -5
Cc1ccc(O)c(C2=Nc3ccccc3N=C(c3ccco3)C2)c1
    17, i, -2, ·, 7, 2, -4, -9
O=C(c1cc(Cl)nc2ccccc12)N(Cc1nnc(-c2ccccc2Cl)o1)C1CC1
    4, i, 17, 6, -3, -6, 1, -1
CN1CCN(C2CC(=O)N(Cc3ccc(N4CCCC4=O)cc3)C2=O)CC1 (configuration not stated)
    3, i, -5, 36, -9, 6, 0, -5
COc1ccc(CC(=O)N(C)CC(=O)Nc2ccccc2C(F)(F)F)cc1S(=O)(=O)N1CCOCC1
    ·, i, -18, ·, -11, ·, 3, 1
O=C(COC(=O)CCC1CCCC1)NCc1ccc(Cl)cc1
    8, i, -13, -65, -9, -6, -3, 2
Cc1ccc2cc(CN(C(=O)c3cccs3)c3ccccc3)c(=O)[nH]c2c1
    -3, i, -3, 14, -19, -5, 1, -7
O=C(c1nnc(-c2ccccc2)o1)C1CC1
    -12, i, ·, -8, -17, 13, 2, 5

Order of values – eIF4H FP inh, Rce1 inh, Yeast UUG start, HIV Env fusion, CSC inhib, PABP polyA inh, MT1-MMP act inh, MT1-MMP act inh RFP
COc1ccc(OC)c(NC(=O)Nc2cnccn2)c1
    -7, i, -22, -35, -3, -4, 0, 1
O=C(CC(=O)Nc1ccc(F)cc1)Nc1ccc(F)cc1
    1, i, -6, -19, -5, 0, -3, 3
Cc1ccc(O)c(NC(=O)c2ccccc2-c2ccccc2C(=O)O)c1
    -4, i, -4, -17, -13, -5, -2, 2
CN(C)c1ccc(N=Cc2nc(-c3ccccc3)oc2OC(=O)c2cccc(Cl)c2)cc1
    1, i, ·, -274, 0, 5, -6, 1
Cc1onc(-c2ccccc2Cl)c1C(=O)N1CCCCCC1
    10, i, -18, 9, ·, 4, -2, 2
Cc1ccc2ncc(S(=O)(=O)c3ccccc3)c(N3CCCCC3C)c2c1 (configuration not stated)
    -6, i, 7, 13, 11, 3, -1, -8
O=C1CCC(C(=O)Nc2cccc(S(=O)(=O)N3CCOCC3)c2)N1 (configuration not stated)
    -5, i, ·, 10, -9, -10, 6, 3
COc1ccc(C(=O)N2CCN(c3ccc([N+](=O)[O-])c(NCCc4ccc(OC)c(OC)c4)c3)CC2)cc1
    8, i, -21, 77*, 8, 5, -1, -30
Cc1c(N=C/C=C2\N(C)c3ccccc3C2(C)C)c(=O)n(-c2ccccc2)n1C
    0, i, -16, ·, -6, -6, 0, 1
O=C(C1CSC2(c3ccc(F)cc3)CCC(=O)N12)N1CCCCCC1 (configuration not stated)
    -8, i, 2, -1, -2, 2, -2, -3
COCCNC(=O)C1CCN(S(=O)(=O)c2ccccc2)CC1
    0, i, -26, ·, -11, 0, -2, 6
O=c1cc(CSc2nnnn2-c2ccc(O)cc2)nc2sccn12
    4, i, 2, -18, -3, 12, -9, 1
O=C(CC[C@H]1O[C@@H](n2cnc3c(NC(=O)c4ccccc4)ncnc32)[C@H](O)[C@@H]1O)NCc1cccs1
    ·, ·, -15, -71, ·, ·, 1, 5
CCOC(=O)c1cc(-c2ccccc2)sc1NC(=O)C(C)Sc1nnnn1C (configuration not stated)
    6, +, -15, 15, 35, 8, -12, -13
O=C(CN1C2CCCC1CC(NC(=O)c1ccco1)C2)Nc1ccccc1 (configuration not stated)
    -13, i, 1, ·, -7, -3, 7, 1

Order of values – eIF4H FP inh, Rce1 inh, Yeast UUG start, HIV Env fusion, CSC inhib, PABP polyA inh, MT1-MMP act inh, MT1-MMP act inh RFP
C[C@@H]1CCC[C@]2(O[C@@H](CCO)C[C@H](O)[C@H]2O)O1
    ·, i, -6, -18, 3, ·, 0, 3
c1ccc2oc(-c3[nH]ncc3CN3CCSCC3)cc2c1
    -6, i, ·, 37, -6, -7, -3, -3
Cc1cc(C)c2cc(C#N)c(N3CCCN(C(=O)c4cnccn4)CC3)nc2c1
    0, i, -3, -3, ·, 8, -14, 6
Cc1cc(C(=O)N2CCCC(C(=O)c3ccc4ccccc4c3)C2)n(C)n1 (configuration not stated)
    -6, i, -5, 8, 2, 1, -1, -3
O=C(Nc1cccc(S(=O)(=O)N2CCCC2)c1)c1cc(S(=O)(=O)N2CCOCC2)ccc1F
    ·, i, 14, ·, -2, ·, 4, 6
O=C(NCc1ccccc1)C1(c2cccc(F)c2)CCCC1
    -4, i, ·, -5, -11, -12, 3, -1
COc1ccc(C(=O)c2ccc(Cl)cc2)c(OC)c1OC
    ·, ·, -13, 10, ·, ·, 2, 0
CN(C(=O)COC(=O)c1ccc2ccccc2n1)c1ccccc1
    ·, ·, -9, -4, 3, ·, 4, 6
CC(C)(C)C(=O)CSc1nc2ccccc2o1
    4, i, ·, 8, 1, -3, 1, 0
COc1cccc(C2(c3cccc(OC)c3)CC2C(=O)Nc2ccc(F)cc2)c1 (configuration not stated)
    -8, i, -7, -1, ·, 1, -2, -5
CC(C)c1cc(C(C)C)n2nc(N)nc2n1
    6, i, -2, 0, -1, 24, 0, 0

Random excerpt: 4 compounds from above.
Order of values – eIF4H FP inh, Rce1 inh, Yeast UUG start, HIV Env fusion, CSC inhib, PABP polyA inh, MT1-MMP act inh, MT1-MMP act inh RFP
C[C@@H]1CCC[C@]2(O[C@@H](CCO)C[C@H](O)[C@H]2O)O1
    ·, i, -6, -18, 3, ·, 0, 3
CC(C)(C)C(=O)CSc1nc2ccccc2o1
    4, i, ·, 8, 1, -3, 1, 0
CC(C)c1cc(C(C)C)n2nc(N)nc2n1
    6, i, -2, 0, -1, 24, 0, 0
O=C(NCc1ccccc1)C1(c2cccc(F)c2)CCCC1
    -4, i, ·, -5, -11, -12, 3, -1

Screens from PubChem.
